Screening results deposited in PubChem BioAssay by National Center for Advancing Translational Sciences (NCATS).
MARV entry inh = qHTS for inhibitors of binding or entry into cells for Marburg Virus. Marburg virus pseudotyped entry inhibition, cell reporter; control for the full effect not named in the record; about a third of the inactives were read at about 46 µM. Potency, µM (titrated, usually from 37.8 µM), inactives show top-dose activity change, negative = inhibition, usual class: inhibitors. actives 1.8% (n = 300,000). AID 540276, 2011; active = well fitted inhibition curve with a large enough effect; inconclusive = small, poorly fitted or top-dose-only effect, or effect the other way; inactive = flat fitted curve, though single readings scatter; tested in HEK293 cells; about a fifth of its hits are not listed in these tables; further: on the % scale 0 is the no-effect control and ±100 the full control effect; luciferase read-out
Cruzain inh Det = qHTS Assay for Promiscuous and Specific Inhibitors of Cruzain (with detergent); Cruzipain (Trypanosoma cruzi), P25779; purified cruzain, Z-FR-AMC fluorescence, 0.01% Triton; Potency, µM, inactives show max response, negative = inhibition, usual class: inhibitors; actives 0.43% (n = 200,000); AID 1478, 2009;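 further: plate controls were neutral wells for no effect and buffer without enzyme for full effect; nearly all actives have a fitted effect of over 40% in size; top concentration of the series not given in the record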
Target sequence (P25779 123-467 limits assumed): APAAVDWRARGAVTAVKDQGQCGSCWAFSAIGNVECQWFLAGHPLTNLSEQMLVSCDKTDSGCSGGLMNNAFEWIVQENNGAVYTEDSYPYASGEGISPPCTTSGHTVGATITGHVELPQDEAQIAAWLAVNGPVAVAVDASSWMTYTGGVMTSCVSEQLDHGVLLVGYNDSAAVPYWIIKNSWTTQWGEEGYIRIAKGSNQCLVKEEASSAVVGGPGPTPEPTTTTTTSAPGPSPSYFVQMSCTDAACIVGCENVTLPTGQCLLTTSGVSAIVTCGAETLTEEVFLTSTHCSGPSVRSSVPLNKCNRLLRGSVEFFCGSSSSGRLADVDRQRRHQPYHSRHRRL
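Cruzain (1.5 nM) preincubated 15 min at RT with compound in 100 mM sodium acetate pH 5.5, 5 mM DTT, 0.01% Triton X-100. Reaction started with 2 uM Z-FR-AMC; AMC fluorescence (ex 360/em 450 nm) change over 60 s gave rate.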
Lassa entry inh = qHTS for Inhibitors of binding or entry into cells for Lassa Virus; Lassa virus pseudotype entry inhibition, cell reporter; control for the full effect not named in the record; Potency, µM (series often up to 37.9 µM), for inactives: at the highest dose activity change, negative = inhibition, usual class: inhibitors; actives 1.2% (n = 300,000); active means well fitted inhibition curve with a large enough effect; inconclusive means small, poorly fitted or top-dose-only effect, or effect the other way; inactive means flat fitted curve, though single readings scatter; tested in HEK293 cells; further: on the % scale 0 is the no-effect control and ±100 the full control effect; nearly all actives have a fitted effect of over 50% in size; luciferase read-out
RE007 growth inh = qHTS Assay for Inhibitors of the HIV-1 protein Vpr. S. pombe RE007 Vpr strain, BacTiter-Glo ATP luminescence, 24 h; control for the full effect not named in the record. Potency, µM (highest dose often 92.2 µM), inactives show at the top dose activity change, negative = less growth. actives 0.21% (n = 360,000). AID 651644, 2012; active = well fitted falling curve with a large enough effect; inconclusive = small, poorly fitted or top-dose-only effect; inactive = no such curve, though single readings can be large or run the other way;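 further: on the % scale 0 is the no-effect control and ±100 the full control effect; nearly all actives have a fitted effect of over 50% in size; the assay follows cell death caused by Vpr and the record does not say whether a fall means rescue or toxicity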
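Fission yeast RE007 carrying one integrated HIV-1 vpr copy, seeded at OD 0.01 in PMG+AL medium with 23 nL pinned compound. Grown 24 h at 30 degrees; viability read by BacTiter-Glo luminescence after 5 min.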
Cruzain inh noDet = qHTS Assay for Promiscuous and Specific Inhibitors of Cruzain (without detergent); Cruzipain (Trypanosoma cruzi), P25779; purified cruzain, Z-FR-AMC fluorescence, no detergent; Potency, µM, for inactives: max response, negative = inhibition, usual class: inhibitors; actives 2.3% (n = 200,000); AID 1476, 2009;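 further: plate controls were enzyme without inhibitor for no effect and buffer without enzyme for full effect; nearly all actives have a fitted effect of over 40% in size; top concentration of the series not given in the record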
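Purified cruzain at 1.5 nM, pre-incubated 15 min with compound at room temperature in 100 mM sodium acetate pH 5.5, 5 mM DTT, 0.00005% Triton X-100. Reaction started with 2 uM Z-FR-AMC; AMC fluorescence increase over 60 s gives rate.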
StopGo reporter = High Throughput Screening for Foot and Mouth Disease Virus Antivirals; human cells with a luciferase reporter of 2A StopGo recoding; control for the full effect not named in the record; Potency, µM (series often up to 57.9 µM), inactives show at the top dose signal change, negative = less light; actives 1.2% (n = 410,000); AID 1159524, 2015; active = well fitted falling curve with a large enough effect; inconclusive = small, poorly fitted or top-dose-only effect; inactive = no such curve, though single readings can be large or run the other way; tested in HEK293T cells; further: on the % scale 0 is the no-effect control and ±100 the full control effect; nearly all actives have a fitted effect of over 45% in size; luciferase light after 4 h
SARS PLP yeast = qHTS of Yeast-based Assay for SARS-CoV PLP; S. cerevisiae expressing SARS-CoV PLpro, growth rescue; control for the full effect not named in the record; Potency, µM (doses to about 32.9 µM), for inactives: at the highest dose activity, positive = growth rescue; actives 0.19% (n = 330,000); AID 485353, 2010; active means well fitted rising curve with a large enough effect; inconclusive means small, poorly fitted or top-dose-only effect; inactive means no such curve, though single readings can be large or run the other way; further: 0% is about no effect; nearly all actives have a fitted effect of over 55% in size; growth read by luminescence after 48 h
NS1 function inh = qHTS Assay for Inhibitors of Influenza NS1 Protein Function. S. cerevisiae slowed by influenza A NS1, growth recovery by OD600. actives 0.4% (n = 270,000). Potency, µM (highest dose often 46.1 µM), inactives show top-dose activity, positive = more growth; active means well fitted rising curve with a large enough effect; inconclusive means small, poorly fitted or top-dose-only effect; inactive means no such curve, though single readings can be large or run the other way; further: nearly all actives have a fitted effect of over 50% in size
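In this qHTS, NS1 from influenza A is expressed in budding yeast, where it slows growth. Cells are switched from glucose to 2% galactose medium (pH 6.0, -URA), treated with compound, and growth recovery is read at OD600.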
* = called active by the depositor; u = inconclusive; x = no result given; & = joins results of further samples; [ ] = remark or other dose. Unless noted, the call rests on the fitted dose curve; in most records, active means well fitted curve in the direction sought with a large enough effect; inconclusive means small, poorly fitted or top-dose-only effect, or another doubt; inactive means no such curve, though single readings can be large; an effect the other way counts as inactive or inconclusive. Potency means the concentration at half of the fitted maximal effect.

SMILES	MARV entry inh	Cruzain inh Det	Lassa entry inh	RE007 growth inh	Cruzain inh noDet	StopGo reporter	SARS PLP yeast	NS1 function inh
CCOC(=O)N1CCN(c2ccc3nnnn3n2)CC1	-13.0%[46.1 µM]	3.0%	-2.4%	-3.5%	6.6%	-7.3%	-1.4%	1.1%
CCOc1ccc(CC2S/C(=N/c3ccccn3)NC2=O)cc1 (stereo unspecified)	-0.5%	1.3%	u	5.0%	u	x	2.1%	2.1%
O=C(CCCn1c(SCC(=O)NC2CCCCC2)nc2ccccc2c1=O)NCC1CCCO1 (stereo unspecified)	-6.3%&-22.4%	4.1%	3.0%	-4.2%	12.1%	-4.7%	-3.5%	4.3%
COc1ccc(CCNC(=O)COC(=O)Cc2ccccc2)cc1	u	0.8%	5.2%	x	12.3%	-16.5%	u	-1.7%
COc1ccccc1CNC(=O)CCCn1c(=O)c2ccccc2n(Cc2ccccc2F)c1=O	-0.9%[46.1 µM]	-1.7%	-7.8%[46.1 µM]	x	-13.4%	-24.5%	x	x
Cc1ccc(N(CC(=O)NC(C)C)C(=O)CCC(=O)Nc2nccs2)c(C)c1	x	x	x	-4.8%	x	0.7%	0.1%	3.5%
CC(C)(C)c1cc(OS(C)(=O)=O)ccc1O	u	x	-29.8%	-0.9%	x	u	-1.6%	4.7%
CC(C)c1ccc(O)c(NC(=S)NC(=O)c2ccc3c(c2)OCO3)c1	x	x	x	-11.1%	x	6.9%	25.8%	-26.7%
O=C(Nc1nnc(COc2ccc(Br)cc2)s1)c1ccco1	7.0%[46.1 µM]	x	u	4.1%	x	-11.6%	1.0%	-20.7%
CC(NC(=O)/C=C/c1ccccc1)c1ccccc1 (stereo unspecified)	u	x	u	5.6%	x	8.1%	-2.0%	-2.2%
O=C(CCC(=O)N1CCOCC1)Nc1ccc(Cl)c(Cl)c1	-26.6%	x	u	-2.2%	x	-4.9%	3.3%	-0.3%
CSc1nccc(N2CCN(c3ccc(F)cc3)CC2)n1	u	-2.0%	1.9%	-25.6%	11.9%	-12.2%	-69.5%	-2.8%
CC(C)NCC(O)COCCOc1ccc(Cl)cc1 (stereo unspecified)	x	x	x	-4.5%	x	1.1%	1.2%	-5.1%
CC1(C)Cc2noc(N)c2C(C)(C)N1OC(=O)c1ccccc1	-1.5%	-1.0%	u	-4.2%	-7.5%	0.0%	3.3%	-1.3%
CCN(CC)C(=O)c1sc(NC(=O)c2ccoc2C)c(C(=O)OC)c1C	-22.9%	-4.8%	-10.2%	-11.9%	u	-6.7%	9.1%	8.1%
CCn1c(P(C)(=O)O)nc2cc(NC(=O)c3ccccc3F)ccc21	12.5%[46.1 µM]	x	18.6%	11.4%	x	9.6%	-0.1%	x
NC(=S)N/N=C/c1ccccc1O	x	x	x	-2.6%	x	-10.1%	-0.6%	-7.5%
CCOc1ccccc1NC(=O)Cn1c(=O)ccc2cc(S(=O)(=O)N3CCC(C)CC3)ccc21	x	-2.3%	u	x	5.9%	-13.3%	x	x
CNC(=O)c1c(Cl)cnn1-c1ccc(C)cc1	u	x	2.8%	-6.8%	x	0.0%	1.0%	3.8%
Cc1cc(=O)n(CC(=O)O)c2ccccc12	x	x	x	5.2%	x	-0.4%	-0.3%	0.2%
COc1ccc(C(c2sc3nc(C)nn3c2O)N2CCCCC2)cc1 (stereo unspecified)	x	-5.2%	x	2.3%	0.3%	14.5%	-7.9%	-6.3%
O=C(Nc1cccc(F)c1)C1CCN(S(=O)(=O)c2cnc[nH]2)CC1	x	x	x	-10.1%	x	-12.0%	0.7%	-7.3%
COc1ccc(-c2nnc(SCc3ccccc3)n2N)cc1	4.8%	7.6%	0.2%	0.0%	0.6%	82.9%[activator]	1.7%	0.8%
O=C(N/N=C/c1cccc2ccccc12)c1cccs1	x	x	x	-11.8%	x	50.2%[activator]	-0.2%	4.2%
N#Cc1ccsc1NC(=O)COC(=O)c1cc2ccccc2cc1O	5.6%	-0.7%	13.0%	-2.7%	u	17.4%	-10.7%	16.8%
COc1ccc(NS(=O)(=O)c2cc(NC(=O)c3ccc(S(=O)(=O)N(C)C)cc3)ccc2N2CCOCC2)cc1	u	x	u	-1.4%	x	47.3%[activator]	-21.5%	x
Cc1ccc(S(=O)(=O)Cn2nnnc2C(c2ccc(F)cc2)N2CCC(C(N)=O)CC2)cc1 (stereo unspecified)	0.0%	-1.3%	-3.9%	-1.4%	u	-11.0%	5.9%	-16.6%
COc1ccc(-n2nc(C(=O)NCC(=O)Nc3cccc(NC(C)=O)c3)c3ccccc3c2=O)cc1	u	x	2.9%	22.4%	x	-27.5%	7.6%	x
Cc1nn(-c2cccc(Cl)c2)c2nc(-c3ccncc3)cc(C(=O)N3CCOCC3)c12	-70.3%	x	u	-0.4%	x	u	-6.0%	x
Cc1ccc(OCCNC(=O)CCC(=O)N2CCOCC2)cc1	-10.6%[46.1 µM]	x	-5.7%	-9.3%	x	20.3%	9.3%	x
CC(C)CC(=O)Nc1nnc(S(=O)(=O)N(C)Cc2ccc(Cl)cc2)s1	x	-1.2%	3.4%[46.1 µM]	x	-15.0%	8.1%	x	x
O=C(CN1CCCSc2ccccc21)N1CCN(S(=O)(=O)c2ccccc2)CC1	u	x	u	0.4%	x	u	1.0%	x
Cc1cc(C)cc(NC(=O)CCCN2C(=O)COc3ccc(C)cc32)c1	-26.0%[46.1 µM]	-11.1%	26.0%[46.1 µM]	x	u	-23.3%	x	x
Cc1oc(-c2ccc(Cl)cc2)nc1CS(=O)CC(=O)NCCCN1CCCC(C)C1 (stereo unspecified)	u	x	-24.4%[46.1 µM]	-23.2%	x	1.8%	x	14.9%
Fc1ccc(-c2ccc(/C=N\n3cnnc3)o2)cc1Cl	u	-11.8%	-6.0%	1.9%	-9.7%	-3.7%	-7.6%	-38.1%
COc1ccc(-c2cc(C(=O)N3CCN(c4ccccc4)CC3)c3ccccc3n2)cc1	u	x	u	-15.9%	x	1.7%	-12.0%	16.9%
COc1ccc(CCNC(=O)c2cc(-c3ccccc3)on2)cc1OC	9.6%	2.6%	u	0.7%	-18.9%	13.4%	2.4%	-5.4%
COCCCNc1nc2nonc2nc1N(C)CC1CCCN1C (stereo unspecified)	x	x	x	5.1%	x	-10.7%	0.2%	-2.6%
CCCc1cc(=O)[nH]c(Nc2ccc(N3CCCCC3)cc2)n1	-15.3%	2.9%	u	-1.4%	-3.2%	-26.9%	1.1%	-6.7%
CCCCn1nnnc1SCC(=O)N1CCOCC1	5.0%	-2.7%	-6.5%	3.5%	-18.9%	-4.8%	4.5%	9.8%
O=C(CCCn1c(=S)[nH]c2cc3c(cc2c1=O)OCO3)N1CCN(C2CCCCC2)CC1	u	-1.4%	-4.9%	-10.1%	-3.6%	-12.9%	2.4%	2.7%
O=C(CC1c2ccccc2Oc2ccccc21)Nc1ccccc1F	2.1%	-2.5%	u	-12.3%	-3.1%	-6.2%	-6.2%	1.9%
Cc1c(CC(=O)N2CCN(C(=O)C3COc4ccccc4O3)CC2)c(=O)oc2cc(O)cc(O)c12 (stereo unspecified)	x	x	x	-2.8%	x	-10.8%	-5.2%	12.9%
O=C(Nc1ccc(F)cc1)C1CCCN(S(=O)(=O)c2ccc3[nH]c(=O)ccc3c2)C1 (stereo unspecified)	x	x	x	9.9%	x	-26.4%	1.5%	9.1%
Cn1c(SCC(=O)Nc2ccccc2F)nc2c(c1=O)SCC2	-24.3%	x	1.3%	-16.5%	x	-23.6%	-0.3%	-18.3%
COc1cccc(C2C(C#N)=C(N)Oc3c2oc(CO)cc3=O)c1 (stereo unspecified)	17.8%	1.9%	-2.5%	1.8%	-15.2%	-22.9%	2.6%	4.6%
O=C(NCCc1ccccc1F)c1cccc2cccnc12	u	x	19.7%[46.1 µM]	-4.8%	x	50.1%[activator]	-14.2%	-8.3%
CC1CCN(c2ncnc3c2cnn3-c2ccc(F)cc2)CC1	x	0.3%	26.9%[46.1 µM]	x	-17.1%	7.6%	x	x
COc1ccc(CNC(=O)CCCn2c(=O)c3cccn3c3cccnc32)cc1	x	-0.9%	15.8%[46.1 µM]	3.7%	3.2%	-11.7%&-14.7%	x	x
CC12CN3CC(C)(CN(C1)C31CCOCC1)C2=O	3.4%	0.6%	6.5%	11.3%	7.5%	-17.5%	0.4%	10.9%
Cc1ccc2nc(SCC(=O)Nc3nonc3C)[nH]c2c1	1.9%[46.1 µM]	x	0.7%	-5.5%	x	17.4%	-2.5%	4.0%
CC(/C=N/NC(=O)c1n[nH]c2c1CCC2)=C\c1ccccc1	u	-1.7%	u	23.4%	u	25.1%	2.4%	-2.0%
COc1ccc(NS(=O)(=O)c2cccc(C(=O)N/N=C/c3ccc4c(c3)OCCO4)c2)cc1	u	x	26.8%[46.1 µM]	-8.5%	x	-2.6%	0.5%	26.4%
CCn1cc(C(=O)c2ccccc2)c2ccccc21	8.4%	-3.3%	-25.4%[14.3 µM]	-14.8%	0.5%	12.2%	9.4%	-48.1%
Cc1ccc(C(=O)NC(=S)Nc2cccc(NC(=O)c3ccccc3Cl)c2)cc1[N+](=O)[O-]	u	-2.3%	-7.9%	32.2%	u	-27.3%	9.6%	11.2µM*
O=C(c1ccc(-n2cccc2)cc1)N1CCN(Cc2ccccc2)CC1	-6.6%	5.2%	-43.5%	3.1%[3.69 µM]	-3.3%	-13.9%	0.7%	0.9%
CNc1nc(C)c(C(C)(C)C)s1	x	x	x	20.7%	x	-0.9%	-5.8%	-1.1%
COc1cccc(OCC(O)CNC2CCCC2)c1 (stereo unspecified)	x	x	x	-6.7%	x	-22.6%	0.7%	6.5%
